# PKD1 inh: blocks activity of human protein kinase D1 | Q15139 | PKD1 kinase fluorescence polarization assay | inhibition, %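 (about 10 µM by stock and volumes)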 | 200,000 compounds, 0.056% hits;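 active = inhibition of 50% or more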;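 note: controls were vehicle for no effect and a reference inhibitor for full effect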
# RGS16-Gao: RGS16-Galphao interaction regulator (human). AID 1441. 220,000 compounds, 0.38% hits. O15492+P09471. bead-based flow cytometry RGS16-Galphao binding, fluorescence; actives lie on both sides. binding response (% of control), % at 10 µM;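 active = below 25% or above 175%, edge rows of some plates excepted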;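 note: Galphao activated by GDP with aluminum fluoride before binding; 100% = wells without compound and 0% = beads without RGS; some results beyond the cut were filed as inactive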
# Target sequence (O15492 whole entry, looked up): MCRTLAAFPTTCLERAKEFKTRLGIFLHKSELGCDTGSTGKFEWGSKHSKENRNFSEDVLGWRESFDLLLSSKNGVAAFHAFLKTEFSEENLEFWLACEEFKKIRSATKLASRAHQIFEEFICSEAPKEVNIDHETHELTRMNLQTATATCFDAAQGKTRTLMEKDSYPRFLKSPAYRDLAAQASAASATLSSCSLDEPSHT
# Target sequence (P09471 whole entry, looked up): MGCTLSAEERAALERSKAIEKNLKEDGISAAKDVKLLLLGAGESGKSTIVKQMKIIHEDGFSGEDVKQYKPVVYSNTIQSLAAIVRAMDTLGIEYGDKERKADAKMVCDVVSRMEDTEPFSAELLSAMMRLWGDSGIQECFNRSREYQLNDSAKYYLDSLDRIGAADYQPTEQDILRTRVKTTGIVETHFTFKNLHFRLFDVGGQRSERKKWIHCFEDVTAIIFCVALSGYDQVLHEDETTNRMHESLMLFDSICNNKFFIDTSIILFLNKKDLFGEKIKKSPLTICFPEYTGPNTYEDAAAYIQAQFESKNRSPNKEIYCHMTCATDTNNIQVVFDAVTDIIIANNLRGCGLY
# GALR2 ag: activates the human galanin receptor 2 | O43603 | GALR2-expressing cells, agonist activation read-out | activation, %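 (tested at 5 µM)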 | 140,000 compounds, 0.48% hits | AID 803;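 active = above mean plus 3 SD of all compounds, about 5% in these data, not always enough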;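 note: 0% = vehicle buffer wells and 100% = reference agonist at full effect; tested in CHO reporter cells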
# Target sequence (O43603 whole entry, looked up): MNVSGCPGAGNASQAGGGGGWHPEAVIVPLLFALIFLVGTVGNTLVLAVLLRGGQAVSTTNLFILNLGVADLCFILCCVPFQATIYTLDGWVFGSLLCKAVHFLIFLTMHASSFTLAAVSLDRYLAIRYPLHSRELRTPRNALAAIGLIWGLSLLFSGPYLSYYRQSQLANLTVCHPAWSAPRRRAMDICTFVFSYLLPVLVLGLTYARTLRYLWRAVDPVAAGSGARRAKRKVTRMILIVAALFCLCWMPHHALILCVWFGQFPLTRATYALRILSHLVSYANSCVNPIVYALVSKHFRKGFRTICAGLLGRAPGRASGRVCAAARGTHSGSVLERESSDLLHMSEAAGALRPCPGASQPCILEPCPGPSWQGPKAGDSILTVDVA
# HSV augment: HSV replication enhancement | HSV replication augmentation in cells, fold increase | maximum fold increase | 220,000 compounds, 0.005% hits;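 active = peak rise of 1.5-fold or more in the series; inconclusive = self-fluorescent or not available for retest; tested in PC3 cells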;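 note: first round at 10 µM; read as green reporter fluorescence; hits show the peak of a series up to 25 µM; 1 = signal of infected wells without compound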
# Insulin prom inh: TRM-6 insulin promoter activity inhibition | TRM-6 cells (human fetal islet line), insulin promoter-eGFP reporter, imaging; reporter expression induced with tamoxifen | inhibition, % at 2 µM | 130,000 compounds, 0.9% hits | AID 1273;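 active = inhibition above the mean plus 3 SD, with well images judged a real hit on visual review, cut at about 60% in these data, passing the limit was not always enough; inconclusive = inhibition over the cutoff but images rejected on review; inactive = inhibition not above the cutoff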
# Insulin prom inh cell count: second read-out of Insulin prom inh, no call of its own (marks repeat the call); normalized cell count, %; measured here: cell count, toxicity; reference of the scale not given here;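 cells exposed to compound for 48 h; stained nuclei by imaging scaled within each plate; lower means fewer cells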
# HSV augment primary fold: also measured in HSV augment; calls as there; fold increase; compound at 10 µM; measured here: primary screen fold increase 10 uM; tested in PC3 cells;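 GFP signal in the first replicate; 1 = infected wells without compound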
# The depositor's hits bear a star; i = inactive; u = inconclusive; x = no result given.
SMILES,PKD1 inh,RGS16-Gao,GALR2 ag,HSV augment,HSV augment primary fold,Insulin prom inh,Insulin prom inh cell count
Cc1ccc(C(=O)NCC(=O)Nc2cccc(S(=O)(=O)NC3=NCCCCC3)c2)cc1C,-11,103,x,i,0.95,-21,92
COc1cccc(C=Nc2ccc3c(c2)OCCO3)c1O,-14,111,-0.3,x,x,6,102
CCCCN(CC)CCCNC(=O)CN1C(=O)CSc2ccc(S(=O)(=O)N3CCOCC3)cc21,-2,104,x,i,0.76,-21,60
COc1ccc(NC(=S)N2CCN(CCN3C(=O)c4cccc5cccc(c45)C3=O)CC2)cc1,3,102,x,i,0.8,x,x
O=C(NCc1ccccc1)C(=O)Nc1nc(C23CC4CC(CC(C4)C2)C3)cs1,-11,106,-1.1,i,1.1,x,x
COC(=O)C1SCC2C(=O)N(Cc3cccc(C)c3)CC(=O)N21 (stereo not drawn),-4,118,x,i,1,0,113
CC/C(=N/NS(=O)(=O)c1ccc(Cl)cc1)c1ccc(O)cc1,-7,109,-0.3,i,1.1,23,111
CCC(C)[C@H](NC(=O)NCc1cccnc1)C(=O)OC (stereo partly drawn),x,100,x,i,1,x,x
O=C1CC(c2cc([N+](=O)[O-])ccc2Cl)c2c(ccc3ccccc23)N1 (stereo not drawn),1,99,0.0,i,0.85,-84,77
O=C(Nc1ccc(F)cc1F)Nc1sccc1-c1nc2ccccc2s1,x,100,x,i,1.2,x,x
O=C1NC(=O)C(CC(=O)N(Cc2ccco2)C2(C(=O)NC3CCCC3)CCCCC2)N1 (stereo not drawn),0,101,-1.7,x,x,0,94
O=[N+]([O-])c1c(NCCCO)cc(N2CCN(Cc3ccc4c(c3)OCO4)CC2)c2nonc12,-8,99,3.4,i,0.85,-6,122
CCOC(=O)CNc1ccc(C(=O)OCC)cc1[N+](=O)[O-],-6,122,0.0,i,1.1,6,98
O=C(CSc1nc(-c2ccccc2)nc2ccc(F)cc12)Nc1ccc(C(=O)O)cc1,1,96,x,i,0.89,-60,130
COc1cc2c(C(=O)NCCCOC(C)C)cn(CC(C)C)c(=O)c2cc1OC,-6,88,-1.5,i,0.99,x,x
O=C(/C=C/c1ccccc1)C1=C(O)C(=O)N(CCO)C1c1ccccc1[N+](=O)[O-] (stereo not drawn),1,87,x,i,1,x,x
CCCCCCC1CC(CC(=O)Nc2ccc([N+](=O)[O-])cc2)C(=O)O1 (stereo not drawn),1,104,-0.9,i,0.85,33,87
COCCOC(=O)CC1=NC(=O)CS1,5,107,-2.5,i,0.82,21,87
O=C(CC1(O)C(=O)Nc2ccccc21)c1cccc(Br)c1 (stereo not drawn),-3,99,-0.4,i,0.86,13,77
O=C(Nc1ccccc1)Nc1cccc(-c2cn3cccnc3n2)c1,1,106,x,i,0.82,-43,113
NC(=O)CCC(C(=O)O)N1C(=O)c2ccc(O)cc2C1=O (stereo not drawn),x,98,x,i,0.96,x,x
Cc1ccc(-c2c(C#N)c(N)nc3c2CCCCC3)o1,-3,99,-1.5,i,1.1,x,x
Cc1ccccc1N=C1N=C(N)c2ccccc21,-8,104,-0.1,i,0.93,x,x
Cc1cc(C)cc(NC(=O)CSc2nc(CSc3ccc(Cl)cc3)cc(=O)[nH]2)c1,x,102,x,i,1.1,x,x
CCSc1nccc(-c2nn(-c3ccc(C)cc3)ccc2=O)n1,-10,106,1.3,i,0.71,x,x
O=C(c1ccncc1)c1ccc(N2CCN(C3CC(=O)N(Cc4cccs4)C3=O)CC2)cc1 (stereo not drawn),-1,96,x,i,0.93,x,x
CCCn1nnc(NC(=O)C(c2ccccc2)c2ccccc2)n1,-8,103,-1.4,i,0.94,67,75
O=S(=O)(NCCC1CC1(Cl)Cl)c1ccccc1 (stereo not drawn),x,89,x,i,0.89,x,x
CCOc1ccc(N(CCCCO)C(=S)NC(=O)c2ccc(C)c(Br)c2)cc1,2,58,x,i,1,x,x
OC(COc1ccccc1)CN1CCN(CC(O)COc2ccccc2)CC1 (stereo not drawn),5,102,x,i,0.95,x,x
N=c1sccn1CC(=O)Nc1cc(Cl)ccc1[N+](=O)[O-],-3,102,x,i,0.86,x,x
O=C(/C=C/c1ccccc1[N+](=O)[O-])NCCCn1ccnc1,-5,105,x,i,1.1,-426,129
O=C(CCCN1C(=O)/C(=C\c2ccco2)SC1=S)Nc1ccc2ccccc2c1,-3,96,-1.8,i,1.2,40,126
Cc1ccccc1/C=C1\OC(=O)c2ccccc21,6,102,-4.1,i,0.85,x,x
CCC(=O)N1CC2(CC(c3cccc(NC(=O)CC(c4ccccc4)c4ccccc4)c3)=NO2)C[C@H]1C(N)=O (stereo partly drawn),x,94,x,i,0.76,x,x
CC(NC(=O)CSc1ncccn1)c1ccccc1 (stereo not drawn),-7,91,-1.0,i,0.91,45,106
Cc1ccc(S(=O)(=O)NNC(=O)c2cc(C)cs2)cc1,x,90,x,i,1,x,x
CCC(C)n1c(NC(=O)c2ccccc2)c(C#N)c2nc3ccccc3nc21 (stereo not drawn),-6,x,34*,i,1.3,12,104
COCCn1c(SCC(=O)Nc2cc(C)on2)nc2c(c1=O)SC(C)C2 (stereo not drawn),x,100,x,i,0.89,x,x
Cc1ccc(C(=O)N2c3ccc(F)cc3CCC2C)o1 (stereo not drawn),2,104,-0.7,i,0.83,x,x
CCC(C(=O)NCc1ccc(F)cc1)N(Cc1ccco1)C(=O)c1snc(C(N)=O)c1N (stereo not drawn),2,96,-2.0,i,0.91,x,x
CC(C)OC(=O)CSc1nc2cc3c(cc2cc1C#N)OCO3,1,38,-1.9,i,0.99,38,106
Cc1cc(NCc2ccncc2)ccc1Br,0,105,x,i,1,52,152
O=C(CCC(=O)NC1CCCCCCC1)Nc1nnc(C(F)(F)F)s1,1,97,-1.3,i,0.74,40,106
C=CCn1c(=S)[nH]c2ccccc2c1=O,-9,99,-4.1,u,x,-236,48
O=S(=O)(NCC1CCCO1)c1ccc2ccccc2c1 (stereo not drawn),-9,102,-0.9,i,0.85,x,x
COc1ccccc1C(=O)N1C(CC(=O)Nc2cc(Cl)ccc2C)C(=O)NC2CCCCC21 (stereo not drawn),-5,106,-1.8,i,0.8,i,50
CCN(C(=O)COC(=O)c1cn(-c2ccccc2)nc1-c1ccccc1)C1CCS(=O)(=O)C1 (stereo not drawn),-7,110,x,i,1,0,111
CCc1nccn1Cc1cc(C=O)ccc1OC,-5,99,x,i,0.85,x,x
COc1ccc(CCNC(=O)CC2Oc3ccc(Cl)cc3NC2=O)cc1OC (stereo not drawn),-6,99,-1.9,i,1.1,x,x
Cc1ccc2c(c1)c(C1=NC(=S)NC1=O)c(O)n2C,-1,89,x,i,0.92,x,x
Cc1ccsc1/C=N/Nc1ncc(Cl)cc1Cl,3,99,-1.4,i,0.8,x,x
CC(=O)C1=C(C)NC(C)=C(C(C)=O)C1c1cccs1,3,130,1.9,i,0.96,-8,107
CCN(C(=O)c1cn(C)c(=O)c2cc(OC)c(OC)cc12)c1cc(OC)ccc1OC,-11,97,-2.8,i,0.99,x,x
COc1ccc(C(=O)Nc2ccc(C(=O)NCCc3ccccc3)cc2)cc1,-9,107,x,i,0.9,x,x
O=[N+]([O-])c1ccc(N2CCN(C(=S)Nc3ccc(F)cc3)CC2)cc1,-1,101,x,i,0.96,57,53
Cc1ccc(-c2ccc(C(=O)O)[nH]2)cc1,0,103,-2.0,i,1,21,60
O=C(NCCc1csc(-c2cccnc2)n1)c1ccc(Br)o1,-2,50,-2.1,i,0.85,30,149
Cc1cccc(SC2CCN(Cc3nc(CC4CC4)no3)CC2)c1,-7,98,x,i,1.1,x,x
CN1CCN(S(=O)(=O)c2ccc(NC(=O)Nc3cccc(Cl)c3)cc2)CC1,0,125,-0.7,i,0.95,6,134

# One compound at a time, as listed above. Order of values: PKD1 inh | RGS16-Gao | GALR2 ag | HSV augment | HSV augment primary fold | Insulin prom inh | Insulin prom inh cell count
# `O=C(CC1(O)C(=O)Nc2ccccc21)c1cccc(Br)c1` (stereo not drawn) across the screens: -3 | 99 | -0.4 | i | 0.86 | 13 | 77
# `CCN(C(=O)c1cn(C)c(=O)c2cc(OC)c(OC)cc12)c1cc(OC)ccc1OC` across the screens: -11 | 97 | -2.8 | i | 0.99 | x | x

# 22 consecutive compounds from above, for reference:
SMILES,PKD1 inh,RGS16-Gao,GALR2 ag,HSV augment,HSV augment primary fold,Insulin prom inh,Insulin prom inh cell count
Cc1ccc(S(=O)(=O)NNC(=O)c2cc(C)cs2)cc1,x,90,x,i,1,x,x
CCC(C)n1c(NC(=O)c2ccccc2)c(C#N)c2nc3ccccc3nc21 (stereo not drawn),-6,x,34*,i,1.3,12,104
COCCn1c(SCC(=O)Nc2cc(C)on2)nc2c(c1=O)SC(C)C2 (stereo not drawn),x,100,x,i,0.89,x,x
Cc1ccc(C(=O)N2c3ccc(F)cc3CCC2C)o1 (stereo not drawn),2,104,-0.7,i,0.83,x,x
CCC(C(=O)NCc1ccc(F)cc1)N(Cc1ccco1)C(=O)c1snc(C(N)=O)c1N (stereo not drawn),2,96,-2.0,i,0.91,x,x
CC(C)OC(=O)CSc1nc2cc3c(cc2cc1C#N)OCO3,1,38,-1.9,i,0.99,38,106
Cc1cc(NCc2ccncc2)ccc1Br,0,105,x,i,1,52,152
O=C(CCC(=O)NC1CCCCCCC1)Nc1nnc(C(F)(F)F)s1,1,97,-1.3,i,0.74,40,106
C=CCn1c(=S)[nH]c2ccccc2c1=O,-9,99,-4.1,u,x,-236,48
O=S(=O)(NCC1CCCO1)c1ccc2ccccc2c1 (stereo not drawn),-9,102,-0.9,i,0.85,x,x
COc1ccccc1C(=O)N1C(CC(=O)Nc2cc(Cl)ccc2C)C(=O)NC2CCCCC21 (stereo not drawn),-5,106,-1.8,i,0.8,i,50
CCN(C(=O)COC(=O)c1cn(-c2ccccc2)nc1-c1ccccc1)C1CCS(=O)(=O)C1 (stereo not drawn),-7,110,x,i,1,0,111
CCc1nccn1Cc1cc(C=O)ccc1OC,-5,99,x,i,0.85,x,x
COc1ccc(CCNC(=O)CC2Oc3ccc(Cl)cc3NC2=O)cc1OC (stereo not drawn),-6,99,-1.9,i,1.1,x,x
Cc1ccc2c(c1)c(C1=NC(=S)NC1=O)c(O)n2C,-1,89,x,i,0.92,x,x
Cc1ccsc1/C=N/Nc1ncc(Cl)cc1Cl,3,99,-1.4,i,0.8,x,x
CC(=O)C1=C(C)NC(C)=C(C(C)=O)C1c1cccs1,3,130,1.9,i,0.96,-8,107
CCN(C(=O)c1cn(C)c(=O)c2cc(OC)c(OC)cc12)c1cc(OC)ccc1OC,-11,97,-2.8,i,0.99,x,x
COc1ccc(C(=O)Nc2ccc(C(=O)NCCc3ccccc3)cc2)cc1,-9,107,x,i,0.9,x,x
O=[N+]([O-])c1ccc(N2CCN(C(=S)Nc3ccc(F)cc3)CC2)cc1,-1,101,x,i,0.96,57,53
Cc1ccc(-c2ccc(C(=O)O)[nH]2)cc1,0,103,-2.0,i,1,21,60
O=C(NCCc1csc(-c2cccnc2)n1)c1ccc(Br)o1,-2,50,-2.1,i,0.85,30,149

# Following part
SMILES,PKD1 inh,RGS16-Gao,GALR2 ag,HSV augment,HSV augment primary fold,Insulin prom inh,Insulin prom inh cell count
COc1cc(/C=C/C(=O)OCC(=O)NCCN2C(=O)CSC2=O)ccc1OC(F)F,-4,96,x,i,1,21,79
O=C(CCCSc1nc2ccccc2[nH]1)NCc1ccccc1Cl,-4,101,-0.4,i,1,-26,106
COCCN(CCOC)c1ncnc2c1cnn2-c1ccc(Cl)cc1,-4,101,0.3,i,0.89,-109,114
O=[N+]([O-])c1cc2c(c(CSc3nnc4ccccn34)c1)OCOC2,5,105,-0.4,i,0.96,-6,51

# Screening data deposited in PubChem by several laboratories.
